Sa RN4220 lethal – growth inhibition of S. aureus RN4220, primary screen, OD600 | 16 h | inhibition, % (no concentration beside the values) | AID 1259311, 2017 | hit rate 0.33% among 330,000;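 active = z-score of -3 or lower and OD600 up to 0.18 on both plates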;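 also: plate controls were untreated cells for no effect and reference antibiotic for full effect; stock transfer was 100 nL into about 80 µL; one replicate is shown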
Autofluor counter – counter-screen for toxin protease inhibitors: compound fluorescence; hit rate 3.1% among 360,000; fluorescence intensity (concentration not given with the values); compound autofluorescence counterscreen, microsphere flow cytometry; stronger effect = higher value;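 active = at least 3 SD above the mean of all compounds, about 16000 in these data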;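 also: 100 nL of 1 mM stock went into each well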
PrP 5UTR inh – inhibition of PrP 5' UTR reporter expression; cell-based PrP 5' UTR mRNA reporter, plate reader; AID 488862, 2010; inhibition, % (test concentration not listed); hit rate 0.35% among 340,000;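 active = every replicate at 50% or more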;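 also: 0 = median of the neutral control wells; tested in H4 reporter cells; numbers are from one replicate; inactives centre near -14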
Sa ugtP lethal – growth inhibition of ugtP-null S. aureus, primary screen, RN4220 ugtP deletion, OD600 | 16 h; some inactives read as strong as hits | growth inhibition, % (concentration not given with the values) | hit rate 0.54% among 330,000 | AID 1259309, 2017;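 active = z-score under -3 and OD600 up to 0.15 on both plates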;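 also: plate controls were untreated wells for no effect and antibiotic for full effect; wells of about 80 µL received 100 nL stock; the first replicate is given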
Mtb hypoxia rep – PubChem AID 1159583. M. tuberculosis hypoxia-regulated fluorescent reporter, fluorescence. fluorescence inhibition, % (no concentration beside the values). hit rate 0.1% among 300,000;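 active = 35 to 45% if threefold the growth effect, above 45% if 1.5-fold the growth effect; inactive = the rest, general growth blockers included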;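 also: wells of about 50 µL received 100 nL stock; 0% = vehicle wells and 100% = reference inhibitor wells; whole bacteria with a GFP reporter of the hypoxia response; strong numbers were not always called active; many hits fall short of the cut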
BJeLR lethal – MLPCN primary cell-based screen for lethality selective to Ras in HRASV12 cells; BJeLR (HRASV12) viability, CellTiter-Glo ATP luminescence, 48 h; reference of the scale not given here; inhibition, % (concentration not given with the values); hit rate 0.17% among 300,000;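 active = replicate mean above 50%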;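 also: 50 nL library stock added to about 25 µL; numbers are from one replicate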
Mtb hypoxia rep growth – also measured in Mtb hypoxia rep; calls as there; growth inhibition, %; measured here: M. tuberculosis growth (absorbance);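 0% = vehicle and 100% = reference antibiotic; read after six days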
* = called active by the depositor; & = joins results of further samples. No enrichment for hits, and some 4.1% of all compounds hit somewhere here.

Screening COc1ccccc1N1CCN(C(CNS(=O)(=O)c2ccccc2)c2cccnc2)CC1 (stereo not given) returned Sa RN4220 lethal -1.1, Autofluor counter 4064, PrP 5UTR inh -1, Sa ugtP lethal -5, Mtb hypoxia rep -1, BJeLR lethal 13 and Mtb hypoxia rep growth 2.
`CC(=O)Nc1ccc(S(=O)(=O)Oc2cccc(/C=C3\SC(N)=NC3=O)c2)cc1` gave Sa RN4220 lethal 1.4, Autofluor counter 2195, PrP 5UTR inh -31, Sa ugtP lethal -14, Mtb hypoxia rep -9, BJeLR lethal 3 and Mtb hypoxia rep growth 7.
O=C(CCCCCN1C(=O)c2ccccc2C1=O)Nc1nccs1 was read as Sa RN4220 lethal 3.5, Autofluor counter 21980*, PrP 5UTR inh 10, Sa ugtP lethal 3, Mtb hypoxia rep -2 and Mtb hypoxia rep growth 0.
`O=C(Cn1nc(Cc2cccnc2)c2ccccc2c1=O)NCC1COc2ccccc2O1` (stereo not given) gave Sa RN4220 lethal 2.4, Autofluor counter 6257, PrP 5UTR inh -6, Sa ugtP lethal -14 and BJeLR lethal 6.
Cc1ccc(C(C(=O)NC2CCCCC2)N(Cc2ccco2)C(=O)C2COc3ccccc3O2)o1 (stereo not given) was read as Sa RN4220 lethal 1.6, Autofluor counter 3193, PrP 5UTR inh -13, Sa ugtP lethal 17 and BJeLR lethal -11.
For CCN1CC(C)C(O)(c2ccccc2)CC1C (stereo not given) the results were Sa RN4220 lethal -20, Autofluor counter 2970, PrP 5UTR inh -11, Sa ugtP lethal -5, Mtb hypoxia rep 4, BJeLR lethal -9 and Mtb hypoxia rep growth 6.
For CN1CCN(S(=O)(=O)c2cccc(C(=O)Nc3cc(C(N)=O)cc(C(N)=O)c3)c2)CC1 the results were Sa RN4220 lethal 1.0, Autofluor counter 5692, PrP 5UTR inh 9, Sa ugtP lethal 6, Mtb hypoxia rep -1, BJeLR lethal -9 and Mtb hypoxia rep growth 3.
CCC=CC(=O)N1CC2(CC(c3cccc(NC(=O)c4ccccc4)c3)=NO2)CC1C(N)=O (stereo not given) was read as Sa RN4220 lethal 4.8, Sa ugtP lethal 0, Mtb hypoxia rep 3 and Mtb hypoxia rep growth 3.
Screening CC(=NN(C)C)c1ccc(OCCOc2ccc([N+](=O)[O-])cc2)cc1 returned Sa RN4220 lethal 14, Sa ugtP lethal 1, Mtb hypoxia rep 3 and Mtb hypoxia rep growth 5.
Cc1ccc(-n2c(-c3ccco3)nc3nc4ccccc4nc32)cc1 was read as Sa RN4220 lethal 5.0, Autofluor counter 2287, PrP 5UTR inh -11, Sa ugtP lethal 9, Mtb hypoxia rep 10, BJeLR lethal 6 and Mtb hypoxia rep growth -1.
O=S(=O)(c1cnc(Cl)c(Br)c1)N1CCCCCC1 was read as Sa RN4220 lethal 7.8, Autofluor counter 1945, PrP 5UTR inh -11, Sa ugtP lethal 1, Mtb hypoxia rep 9, BJeLR lethal 6 and Mtb hypoxia rep growth 10.
Screening CN1CC=C2C(C#N)=C(N)C(C#N)(C#N)C(c3ccncc3)C2C1 (stereo not given) returned Sa RN4220 lethal -9.3, Autofluor counter 5057, PrP 5UTR inh -17, Sa ugtP lethal 8 and BJeLR lethal 1.
`COc1ccc(/C=C2\SC(=O)N(CCNC(=O)Cn3[nH]c(=O)c4ccccc4c3=O)C2=O)cc1` gave Sa RN4220 lethal 1.5, Autofluor counter 4049, PrP 5UTR inh -8, Sa ugtP lethal -2, Mtb hypoxia rep 12 and Mtb hypoxia rep growth -1.
`Cc1ccc2c(c1)N(CC(=O)N1CCCC1)C(=O)C(C)O2` (stereo not given) gave Sa RN4220 lethal 2.1, Autofluor counter 3721, PrP 5UTR inh -5, Sa ugtP lethal 3, Mtb hypoxia rep 14, BJeLR lethal -2 and Mtb hypoxia rep growth 0.
Screening c1ccc2c(c1)OC(CCCN1CCCCC1)c1ccccc1S2 (stereo not given) returned Sa RN4220 lethal -0.1, PrP 5UTR inh -9, Sa ugtP lethal 0, Mtb hypoxia rep 16, BJeLR lethal 8 and Mtb hypoxia rep growth 13.
COc1cc(C2Nc3ccccc3NC3=C2C(=O)CC(C)(C)C3)cc(OC)c1OC(C)=O (stereo not given) was read as Sa RN4220 lethal 9.8, Autofluor counter 3422, PrP 5UTR inh -36, Sa ugtP lethal 6, Mtb hypoxia rep 13, BJeLR lethal 3 and Mtb hypoxia rep growth 1.
For CNc1nc(-c2cccs2)cc(C(F)(F)F)c1C#N the results were Sa RN4220 lethal 2.4, Autofluor counter 5280, PrP 5UTR inh -14, Sa ugtP lethal 16, Mtb hypoxia rep 10, BJeLR lethal -7 and Mtb hypoxia rep growth -3.
For CN(C)[C@@H]1C(=O)C(C(N)=O)=C(O)[C@@]2(O)C(=O)C3=C(O)c4c(O)cccc4[C@@](C)(O)C3[C@H](O)C12 (stereo not given in full) the results were Autofluor counter 5106&5613, PrP 5UTR inh -53&-53 and BJeLR lethal 3.
CCN(CC)c1ccc(C(=O)OCC(=O)Nc2ncccn2)cc1 was read as Sa RN4220 lethal 4.2, Autofluor counter 3657, PrP 5UTR inh -14, Sa ugtP lethal 6, Mtb hypoxia rep 5 and Mtb hypoxia rep growth 3.
O=C(CSc1nc2ccccc2n1Cc1ccccc1)NN=Cc1ccco1 was read as Sa RN4220 lethal 5.0, Sa ugtP lethal 1, Mtb hypoxia rep -2 and Mtb hypoxia rep growth -5.
CCOC(=O)CC1c2ccc(C(F)(F)F)cc2S(=O)(=O)N1C(C)(C)C (stereo not given) was read as Sa RN4220 lethal 0.9, Sa ugtP lethal -2, Mtb hypoxia rep -8 and Mtb hypoxia rep growth 0.
CCCC(CCC)C(=O)NC1CCN(Cc2ccccc2)CC1 was read as Sa RN4220 lethal 8.2, Autofluor counter 4375, PrP 5UTR inh -13, Sa ugtP lethal 7, Mtb hypoxia rep -2, BJeLR lethal -1 and Mtb hypoxia rep growth -1.
Screening CC(C)C(=O)N=c1sc2cccc(F)c2n1C returned Sa RN4220 lethal 5.2, Autofluor counter 3509, PrP 5UTR inh -30, Sa ugtP lethal 1, Mtb hypoxia rep 5, BJeLR lethal -16 and Mtb hypoxia rep growth -2.
`CSCCC(NC(=O)C1CC1)c1nc2ccccc2[nH]1` (stereo not given) gave Sa RN4220 lethal 7.5, Autofluor counter 20590*, PrP 5UTR inh -32, Sa ugtP lethal -7, Mtb hypoxia rep 2, BJeLR lethal 1 and Mtb hypoxia rep growth 13.
For O=C(Cc1ccccc1)NN=Cc1cc(Br)cs1 the results were Sa RN4220 lethal 4.1, Sa ugtP lethal 10, Mtb hypoxia rep 4 and Mtb hypoxia rep growth 9.
CCNC(=O)c1ccc2c(c1)C1C3CCC(C3)C1C(c1ccccc1)N2 (stereo not given) was read as Sa RN4220 lethal 4.5, Autofluor counter 2424, PrP 5UTR inh 0, Sa ugtP lethal -4, Mtb hypoxia rep 0, BJeLR lethal -7 and Mtb hypoxia rep growth 15.
Cc1ccc(C)c(SCC(=O)Nc2cccnc2Cl)c1 was read as Sa RN4220 lethal 5.8, Autofluor counter 4044, PrP 5UTR inh -23, Sa ugtP lethal 12, Mtb hypoxia rep -2, BJeLR lethal -2 and Mtb hypoxia rep growth -5.
Cc1cc(C)nc(-n2cc(C(=O)c3cc(F)ccc3O)cn2)n1 was read as Sa RN4220 lethal 3.7, Autofluor counter 9091, PrP 5UTR inh 8, Sa ugtP lethal 10, Mtb hypoxia rep -1, BJeLR lethal -9 and Mtb hypoxia rep growth -4.
For COC(=O)CSc1nnc(-c2cccc(NC(=O)c3ccc(C)cc3)c2)n1C the results were Sa RN4220 lethal -1.8, Autofluor counter 4662, PrP 5UTR inh 12, Sa ugtP lethal 3 and BJeLR lethal -4.
COc1ccc(OC)c(N(CC(=O)NCCSCc2ccco2)S(=O)(=O)c2ccc(OC)c(OC)c2)c1 was read as Sa RN4220 lethal 7.0, Autofluor counter 4353, PrP 5UTR inh -8, Sa ugtP lethal 6, Mtb hypoxia rep 2, BJeLR lethal -12 and Mtb hypoxia rep growth 0.
CC(=O)CC1(C)OC(N)=C(C#N)C1(C#N)C#N (stereo not given) was read as Sa RN4220 lethal 0.8, Autofluor counter 2818, PrP 5UTR inh -10, Sa ugtP lethal 5 and BJeLR lethal -7.
Cc1ccc(C)c(Nc2c([N+](=O)[O-])ccc3nonc23)c1 was read as Sa RN4220 lethal 10, Autofluor counter 3696, PrP 5UTR inh -10, Sa ugtP lethal 10, Mtb hypoxia rep -1, BJeLR lethal -13 and Mtb hypoxia rep growth -7.
`Cc1c(C(=O)N2CCN(Cc3ccc4c(c3)OCO4)CC2)sc2ncnc(N3CCN(c4ccccc4F)CC3)c12` gave Sa RN4220 lethal -5.1, Autofluor counter 5990, PrP 5UTR inh 8, Sa ugtP lethal 4, Mtb hypoxia rep -25, BJeLR lethal 6 and Mtb hypoxia rep growth 0.
CCn1c(=O)n(CC)c2cc(N3CCCC3)c(NC(=O)c3cccc(C)c3)cc21 was read as Sa RN4220 lethal 2.3, Autofluor counter 4819, PrP 5UTR inh 12, Sa ugtP lethal -7, Mtb hypoxia rep 2, BJeLR lethal 1 and Mtb hypoxia rep growth 7.
Screening COc1ccc(C2C=CCN(C(=O)NC34CC5CC(CC(C5)C3)C4)CC(=O)N2Cc2ccc(F)cc2)cc1 (stereo not given) returned Sa RN4220 lethal 0.6, Sa ugtP lethal 14, Mtb hypoxia rep 7 and Mtb hypoxia rep growth 4.
O=C(NCc1ccco1)C1CCCN1C(=O)NCc1ccccc1 (stereo not given) was read as Sa RN4220 lethal 2.2, Autofluor counter 9722, PrP 5UTR inh -20, Sa ugtP lethal 2, Mtb hypoxia rep 2, BJeLR lethal 0 and Mtb hypoxia rep growth 2.
Screening O=C(C1CCCO1)N1CCC2(CC1)OCCO2 (stereo not given) returned Sa RN4220 lethal 2.0, Autofluor counter 10621, PrP 5UTR inh -27, Sa ugtP lethal -1, Mtb hypoxia rep 0, BJeLR lethal -7 and Mtb hypoxia rep growth 6.
`CCN1CCN(c2oc(/C=C/c3ccccc3)nc2C#N)CC1` gave Sa RN4220 lethal 4.5, Autofluor counter 3413, PrP 5UTR inh -11, Sa ugtP lethal 0, Mtb hypoxia rep 9, BJeLR lethal -4 and Mtb hypoxia rep growth -1.
For COc1ccc(C(C)=O)cc1CSc1nnc(-c2ccccc2O)n1-c1ccccc1 the results were Sa RN4220 lethal 9.8, Autofluor counter 19750*, PrP 5UTR inh -12, Sa ugtP lethal -4, Mtb hypoxia rep 5, BJeLR lethal -14 and Mtb hypoxia rep growth 5.
Screening Cc1cc2c(C)nc3ccccc3c2o1 returned Sa RN4220 lethal 0.2, Autofluor counter 2888, PrP 5UTR inh -16, Sa ugtP lethal 1 and BJeLR lethal 1.
`COc1ccccc1C1CC(c2ccccc2)Nc2ncnn21` (stereo not given) gave Sa RN4220 lethal 3.2, Autofluor counter 8123, PrP 5UTR inh -44, Sa ugtP lethal 9, Mtb hypoxia rep 6, BJeLR lethal 0 and Mtb hypoxia rep growth 3.
For CCOc1ccc(CCNC(=O)CCS(=O)(=O)c2ccc(Br)cc2)cc1OCC the results were Sa RN4220 lethal -3.1, Autofluor counter 3483, PrP 5UTR inh -5, Sa ugtP lethal -4, Mtb hypoxia rep 0, BJeLR lethal 2 and Mtb hypoxia rep growth 8.
For CCOc1cc(C=NNC(=O)C(C)Sc2ccccn2)ccc1O (stereo not given) the results were Sa RN4220 lethal 3.2, Sa ugtP lethal 6, Mtb hypoxia rep 9 and Mtb hypoxia rep growth 1.
For N#Cc1cccc(NC(=O)CNc2cccc(S(=O)(=O)N3CCCCC3)c2)c1 the results were Sa RN4220 lethal 0.5, PrP 5UTR inh -7, Sa ugtP lethal -9, Mtb hypoxia rep -4, BJeLR lethal 2 and Mtb hypoxia rep growth 10.

Reprinted at random: 3 entries already listed, in no set order.
Screening CC(C)C(=O)N=c1sc2cccc(F)c2n1C returned Sa RN4220 lethal 5.2, Autofluor counter 3509, PrP 5UTR inh -30, Sa ugtP lethal 1, Mtb hypoxia rep 5, BJeLR lethal -16 and Mtb hypoxia rep growth -2.
For CN(C)[C@@H]1C(=O)C(C(N)=O)=C(O)[C@@]2(O)C(=O)C3=C(O)c4c(O)cccc4[C@@](C)(O)C3[C@H](O)C12 (stereo not given in full) the results were Autofluor counter 5106&5613, PrP 5UTR inh -53&-53 and BJeLR lethal 3.
Screening COc1ccccc1N1CCN(C(CNS(=O)(=O)c2ccccc2)c2cccnc2)CC1 (stereo not given) returned Sa RN4220 lethal -1.1, Autofluor counter 4064, PrP 5UTR inh -1, Sa ugtP lethal -5, Mtb hypoxia rep -1, BJeLR lethal 13 and Mtb hypoxia rep growth 2.

Screens deposited in PubChem by several laboratories.
